# Six1-Eya2 blk – blocks human Six1 binding to Eya2. activity change, % (test concentration not listed). hit rate 0.56% among 360,000. AlphaScreen GST-Six1/His-Eya2 binding, biochemical; hits give low values; control for the full effect not named in the record. Q15475+O00167. AID 651725; in the data active = activity change below about -65%; inconclusive = about -30% to -65%; inactive = above about -30%; further: on the % scale 0 is the no-effect control and ±100 the full control effect; compound concentration not given in the record
#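 GST-Six1 + His-Eya2 (5X stock: 250/500 nM); Tris pH 8.0, 300 mM NaCl, 0.05% BSA, 0.02% Tween 20; GSH donor/Ni acceptor beads; 1 h 37 °C dark; AlphaScreen readout.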
# CtBP-E1A blk – blocks the CtBP interaction with E1A; activity change, % (test concentration not listed); hit rate 0.49% among 340,000; AlphaScreen GST-E1A/His-CtBP binding, 1536-well; hits give low values; control for the full effect not named in the record; in the data active means activity change below about -65%; inconclusive means about -30% to -65%; inactive means above about -30%; further: on the % scale 0 is the no-effect control and ±100 the full control effect; compound concentration not given in the record
#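 AlphaScreen with 125 nM GST-E1A and 125 nM His-CtBP (5X stocks) in Tris pH 8.0, 300 mM NaCl, BSA, Tween 20, TCEP. Compounds preincubated 2 h at 37 deg C, then glutathione donor/nickel acceptor beads added for 1 h at 37 deg C in dark.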
# TRPML1 inh – human mucolipin-1 channel inhibition; Q9GZU1; TRPML1-inducible cells, Ca2+ dye fluorescence, FDSS; hits give low values; inhibition of EC80 agonist-evoked calcium signal; activity change, negative = inhibition, % (concentration not given with the values); hit rate 0.02% among 390,000; AID 624415; in the data active means activity change below about -50%; inconclusive means about -30% to -50%; inactive means above about -30%;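 further: stimulus is agonist 54-4 at its EC80 concentration; on the % scale 0 is the no-effect control and ±100 the full control effect; compound concentration not given in the record; the text of the record puts the active cut at -80%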
# Target sequence (Q9GZU1 whole entry, looked up): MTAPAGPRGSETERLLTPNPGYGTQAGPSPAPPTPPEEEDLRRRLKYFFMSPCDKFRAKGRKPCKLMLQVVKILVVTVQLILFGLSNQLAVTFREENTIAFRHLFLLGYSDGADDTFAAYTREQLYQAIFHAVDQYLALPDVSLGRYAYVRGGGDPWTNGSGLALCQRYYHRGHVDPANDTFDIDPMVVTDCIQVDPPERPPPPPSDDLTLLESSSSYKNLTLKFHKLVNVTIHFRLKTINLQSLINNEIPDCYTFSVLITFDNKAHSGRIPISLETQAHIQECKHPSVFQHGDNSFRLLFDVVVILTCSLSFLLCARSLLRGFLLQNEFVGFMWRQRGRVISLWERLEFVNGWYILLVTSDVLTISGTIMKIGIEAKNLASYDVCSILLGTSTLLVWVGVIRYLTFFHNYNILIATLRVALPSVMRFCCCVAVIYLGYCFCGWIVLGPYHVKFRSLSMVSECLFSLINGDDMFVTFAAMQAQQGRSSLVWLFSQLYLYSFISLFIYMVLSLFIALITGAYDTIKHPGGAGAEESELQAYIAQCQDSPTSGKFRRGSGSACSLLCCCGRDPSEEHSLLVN
#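 Tet-induced TRPML1-DL cells loaded with Ca8 no-wash calcium dye were read kinetically on FDSS. Compound addition was followed by EC80 agonist 54-4 (4 uM final); inhibition was read over 110 s.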
# TRPML1 agonist – human mucolipin-1 channel agonism; Q9GZU1; TRPML1-expressing cells, Ca2+ dye fluorescence, FDSS; host cell line not named in the record; reference of the full effect not given here; activation, % (test concentration not listed); hit rate 0.12% among 410,000; AID 624414; in the data active = activation above about 50%; inconclusive = about 30% to 50%; inactive = below about 30%; further: 0% is about no effect; the text of the record puts the active cut at 80%
#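 TRPML1-DL cells, Tet-induced overnight (~16 h, 37 degrees C), loaded 45-90 min at room temperature with Ca8 no-wash calcium dye plus quencher. FDSS fluorescence: 10 s baseline, compound pin-transfer, 110 s agonist read, then EC80 54-4 (4uM final) and 110 s antagonist read.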
# TRPV1 PAM – human TRPV1 potentiation. AID 540277. Q8NER1. TRPV1-expressing cells, Fluo-8 calcium influx, capsaicin EC20 potentiation; host cell line not named in the record; control for the full effect not named in the record. hit rate 0.02% among 320,000. potentiation, % at 8.33 µM; active means potentiation above 80%; inconclusive means 30% to 80%; inactive means below 30%; further: 0% is about no effect
#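 Fluo-8 calcium influx in TRPV1-expressing cells, kinetic read (ex 480/em 520 nm). Compound added and read 3 min for agonist activity, followed by capsaicin at EC20 final and 2 min further read for enhancement.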
# D2 PAM – human D2 receptor positive allosteric modulation; P14416; DiscoveRx D2 beta-arrestin cells, luminescence, 90 min; 100% = 57 uM dopamine signal; potentiation, % (no concentration beside the values); hit rate 0.23% among 360,000; active = potentiation of 50% or more; inconclusive = 30% to 50%; inactive = 30% or less;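 further: compound concentration not given in the record; tested on top of an EC20 dose of dopamine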
# Target sequence (P14416 whole entry, looked up): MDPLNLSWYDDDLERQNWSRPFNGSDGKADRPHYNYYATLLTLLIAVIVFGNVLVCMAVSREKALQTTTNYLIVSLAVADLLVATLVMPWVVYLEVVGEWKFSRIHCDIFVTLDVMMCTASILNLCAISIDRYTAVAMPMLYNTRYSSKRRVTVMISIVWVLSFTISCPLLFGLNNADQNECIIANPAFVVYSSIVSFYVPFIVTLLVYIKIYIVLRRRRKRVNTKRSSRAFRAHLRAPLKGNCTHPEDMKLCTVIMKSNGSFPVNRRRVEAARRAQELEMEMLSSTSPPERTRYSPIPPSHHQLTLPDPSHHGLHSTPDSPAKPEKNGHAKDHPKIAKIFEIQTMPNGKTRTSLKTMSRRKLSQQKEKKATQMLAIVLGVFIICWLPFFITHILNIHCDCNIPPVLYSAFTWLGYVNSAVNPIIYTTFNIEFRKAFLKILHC
#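 PathHunter beta-arrestin assay in DiscoveRx D2 cells. Compounds were added with an EC20 of dopamine (50 nM final) for 90 min at 37 deg C. Luminescence was read 1 h after detection reagent, with 57 uM dopamine as the EC100 control.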
# The depositor's hits bear a star; ? = inconclusive; . = no result given; & = joins results of further samples.
SMILES,Six1-Eya2 blk,CtBP-E1A blk,TRPML1 inh,TRPML1 agonist,TRPV1 PAM,D2 PAM
CCOC(=O)C1(C)CCN1C(=O)c1ccc(N(C)C)cc1 (centres undefined),-2,1,.,-0.6,.,0
COc1cc(-c2noc(CCCC(=O)NCc3ccco3)n2)cc(OC)c1OC,-3,3,-11,-0.3,-3,8
Cc1ccc(S(=O)(=O)NCc2ccccc2)cc1C(=O)N(C)Cc1ccccc1F,1,4,15,0.5,-8,2
O=C(COc1ccc(Cl)cc1)N1CCCCCCC1,5,7,-1,-0.6,-24,6
CCC(C)NC(=O)CNC(=S)N(Cc1ccccc1F)C1CCCCC1 (centres undefined),-1,-7,-1,0.5,-16,2
NNC(=O)c1nnsc1-c1csnn1,-8,17,10,0.3,.,-13
Nc1cc(=O)[nH]c(SCC(=O)N2CCCC2)n1,9,1,-11,1.3,.,-2
Cn1c(=O)[nH]c(=O)c2c1nc(Sc1nc3ccccc3s1)n2Cc1ccccc1,-8,-2,7,2.9,8,-32
COC(=O)c1ccc(N2CC3CNC(=O)C2(C(=O)OC)N3C)cc1 (centres undefined),-1&-6,5&6,-16&-3,-0.2&-0.6,.,-13&-9
Cc1cc2oc(=O)cc(CN(C)Cc3ccc(OC(F)F)cc3)c2cc1Cl,4,8,25,1.0,-4,8
NC(=O)Cc1ccc(C(=O)c2ccccc2F)s1,-7,5,4,-0.3,1,-6
Cc1cccc(NC(=S)NCCc2ccccc2)n1,-2,-18,7,2.0,7,-3
CC(C)(C)S(=O)N1Cc2cc(=O)n(Cc3ccccc3)c(CCO)c2[C@@H]1CCO (some centres undefined),7,3,0,3.7,.,0
NC(c1csc(NC(=O)Nc2cccc(Cl)c2)n1)c1ccccc1Cl (centres undefined),-7,-26,-24,0.5,.,-5
COc1cc(/C=C(/C#N)c2nc3ccccc3[nH]2)ccc1Oc1ncccc1[N+](=O)[O-],-5,-24,19,1.1,.,6
CCN(C(=O)COc1ccc(C(=O)c2ccccc2)cc1)c1ccccc1,-4,-2,32,2.8,-8,-7
CCOC(=O)c1c(NC(=O)C2c3ccccc3Oc3ccccc32)sc(C(N)=O)c1C,-16,1,-1,0.0,15,-8
CC1=C(/C=C/C(C)=C/C=C/C(C)=C/CO)C(C)(C)CCC1,-9,-8,.,.,.,-8
O=C(NCc1ccccc1)c1ccc(CS(=O)(=O)Cc2ccccc2F)o1,7,.,-2,-0.6,-5,-3
CC(C)Nc1nc(N)c(C(=O)C23CC4CC(CC(C4)C2)C3)s1,-2,.,9,2.4,-4,1

# In another format: results already given.
SMILES	Six1-Eya2 blk	CtBP-E1A blk	TRPML1 inh	TRPML1 agonist	TRPV1 PAM	D2 PAM
COC(=O)c1ccc(N2CC3CNC(=O)C2(C(=O)OC)N3C)cc1 (centres undefined)	-1&-6	5&6	-16&-3	-0.2&-0.6	.	-13&-9
CC(C)Nc1nc(N)c(C(=O)C23CC4CC(CC(C4)C2)C3)s1	-2	.	9	2.4	-4	1
Cn1c(=O)[nH]c(=O)c2c1nc(Sc1nc3ccccc3s1)n2Cc1ccccc1	-8	-2	7	2.9	8	-32
CCOC(=O)C1(C)CCN1C(=O)c1ccc(N(C)C)cc1 (centres undefined)	-2	1	.	-0.6	.	0
Nc1cc(=O)[nH]c(SCC(=O)N2CCCC2)n1	9	1	-11	1.3	.	-2
CC(C)(C)S(=O)N1Cc2cc(=O)n(Cc3ccccc3)c(CCO)c2[C@@H]1CCO (some centres undefined)	7	3	0	3.7	.	0

# The list continues.
SMILES,Six1-Eya2 blk,CtBP-E1A blk,TRPML1 inh,TRPML1 agonist,TRPV1 PAM,D2 PAM
Cc1ccc(NC(=O)CCC(=O)OC(C)C(=O)c2ccccc2)cc1 (centres undefined),9,2,17,0.5,4,-1
CCOC(=O)C1=C(C)NC(=O)C(C(N)=O)C12CCCC2 (centres undefined),5,0,3,0.2,4,-4
C=CCn1c(N)c(C(=O)OCCC)c2nc3ccccc3nc21,-16,-10,-1,-0.7,13,-32
O=S(=O)(Nc1ccc(-n2cccc2)cc1)c1ccc(Cl)c(Cl)c1,6,.,1,1.4,-37,-1
CC(C)NC(=O)CCNC(=O)c1ccc(F)cc1,2,8,6,-0.1,-2,-12
CCOC(=O)/C=c1\sc2n(c1=O)CCN=2,4,4,12,0.2,6,-1
Cc1cccc(N=C2NC(=O)c3cc([N+](=O)[O-])ccc32)c1,-5,-4,-10,1.2,13,20
COC(=O)c1ccccc1NC(=O)c1ccc(COc2cccc3ccccc23)o1,-4,2,3,0.0,20,5
c1csc(C(c2nnnn2C2CCCCC2)N2CCCC3(CCCCC3)C2)c1 (centres undefined),3,4,13,-0.3,13,-16
CC1CCC(N2CCNCC2)CC1 (centres undefined),5,1,12,3.5,-12,-9
O=C(CN1C(=O)c2cccnc2Oc2ccc(Cl)cc21)NC1CCCC1,-17,-14,33,0.6,6,-28
Cc1ccc(NC(=O)CN(C)C(=O)CCOc2cccc(C)c2)cc1,1,1,9,0.3,-6,-21
CCOC(=O)N1CCN(C(=O)C2CCN(S(=O)(=O)c3ccccc3)CC2)CC1,2,6,1,0.2,3,-10
N#Cc1ccc(NN=Nc2ccccc2C#N)cc1,4,3,11,-0.6,.,-5
CCCC(C(=O)NC1CCCC1)N(CC1CCCO1)C(=O)c1snc(C(N)=O)c1N (centres undefined),6,9,-10,2.9,3,-2
CCN1CCN(c2ccc(S(=O)(=O)N3CCOCC3)cc2NC(=O)C(C)Oc2cccc(Cl)c2)CC1 (centres undefined),-10,?,6,0.7,-19,1
COc1ccccc1OCC(=O)Nc1c2c(nn1-c1ccc(C)cc1)CS(=O)(=O)C2,-9,11,7,2.8,1,-14
O=C(CNC(=O)c1ccc(Br)o1)NCc1ccccc1,6,3,-3,0.1,22,-8
CCNC(=O)OCC(CC)NC(=O)OCC(C)C (centres undefined),0,1,3,0.2,10,-11
O=C(NC1CCCN(C2Cc3ccccc3C2)C1)c1ccc(F)cc1Cl (centres undefined),3,-7,4,-0.6,11,-28
O=C(NNC(=O)c1ccccc1F)c1ccc(S(=O)(=O)N2CCCCC2)cc1,5,0,-4,-0.2,.,-3
Cc1ccc(C(=O)NNC(=O)CSc2nnc(-c3ccncc3)n2C)cc1,7,-1,-8,-0.3,-8,-14
COc1cc(C2C3=C(CCCC3=O)Nc3[nH]n(-c4ccccc4)c(=O)c32)ccc1O (centres undefined),-13,-16,-1,0.2,.,3
CC(=O)c1cccc(NC(=O)CCS(=O)(=O)c2ccc(Br)s2)c1,3,-3,11&6,-1.0&0.0,-14,-7
CN(Cc1ccc(Cl)cc1)C(C(=O)NC1CCCCC1)c1cc2ccccc2o1 (centres undefined),4,3,.,0.2,.,-6
CCOC(=O)c1c(C)nc(C)c(C(=O)OCC)c1-c1cccnc1,2,.,3,-0.4,1,9
CCNC(=O)/C=C1\NC(C)(C)Cc2c1ccc1ccccc21,-2,4,11,1.5,-2,-7
Cc1nnc(NC(=O)c2cccc(S(=O)(=O)N3CCCC3)c2)s1,-3,4,1,-0.5,15,-9
CCOc1ccccc1N1CCN(CC(=O)Nc2nccs2)CC1,1,-1,8,-1.3,.,-42
O=C(NCCCc1ccccc1)Nc1cccc(Cl)c1,13,2,-19,0.1,-7,-31
O=C(CN1CCOCC1)Nc1ccc(Cl)c(Cl)c1,-1,5,-2,3.9,-4,-1
O=C(Nc1ccc2c(c1)OCCO2)c1ccc(Cl)cc1,3,.,.,.,6,-14
CCn1c(SCC(=O)N2CCCC2)nc2ccccc21,-1,9,2,1.0,2,-9
O=C(CN1CCN(C(=O)CNC(=O)c2ccc(N3CCCC3=O)cc2)CC1)Nc1cccc(F)c1,7,-1,7,0.5,.,-17
NC(=O)c1cc(S(=O)(=O)N2CCCC2)ccc1OCCOc1ccccc1,-1,1,5,4.3,-4,0
O=C(NCc1ccc(F)cc1)C1CC(=O)N(C2CCCCCCC2)C1 (centres undefined),6,3,3,0.1,-6,6
COc1ccc(Cl)c(N2CCN(CCCNC(=O)Nc3ccc(C)cc3)CC2)c1,?,?,-23,1.1,9,-24
CC1CCCN(CC(=O)Nc2cccc([N+](=O)[O-])c2)C1 (centres undefined),10,3,3,0.3,-13,-41
COC(=O)/C(C(C)=O)=C(\C=C\N(C)C)N(C)C,2,4,-4,0.5,4,3
O=C(CCCn1nnc(-c2cccnc2)n1)c1ccc(F)cc1,-2,0,1,0.9,1,-12

# Compound profiles (already shown). Values in the order: Six1-Eya2 blk	CtBP-E1A blk	TRPML1 inh	TRPML1 agonist	TRPV1 PAM	D2 PAM
# O=C(CCCn1nnc(-c2cccnc2)n1)c1ccc(F)cc1 across the screens: -2	0	1	0.9	1	-12
# CCOc1ccccc1N1CCN(CC(=O)Nc2nccs2)CC1 across the screens: 1	-1	8	-1.3	.	-42
# Cc1nnc(NC(=O)c2cccc(S(=O)(=O)N3CCCC3)c2)s1 across the screens: -3	4	1	-0.5	15	-9
# CC(=O)c1cccc(NC(=O)CCS(=O)(=O)c2ccc(Br)s2)c1 across the screens: 3	-3	11&6	-1.0&0.0	-14	-7

# Continuation:
SMILES,Six1-Eya2 blk,CtBP-E1A blk,TRPML1 inh,TRPML1 agonist,TRPV1 PAM,D2 PAM
COc1cccc(NC(=O)Nc2nnc([C@@H]3C[C@H](O)[C@@H](CO)O3)s2)c1,0,2,.,-0.1,.,-5
O=C(NCC(O)c1ccccc1)c1ccc(Cl)c(S(=O)(=O)N2CCCC2)c1 (centres undefined),4,-20,-4,0.0,-25,-7
Cn1ccsc1=NC(=O)c1cc(S(=O)(=O)N2CCOCC2)ccc1Cl,-1,8,-2,0.7,-4,-8
Cc1nn(-c2ccccc2)c(N2CCCC2)c1/C=N/O,-1,3,4,1.1,-8,-3
CCCCn1c(N)c(N(CCC(C)C)C(=O)c2cccc(S(=O)(=O)N3CCN(C)CC3)c2)c(=O)[nH]c1=O,2,9,-5,0.9,3,-15
Cc1cc(C(=O)COC(=O)CN(C)S(=O)(=O)c2ccc(Cl)cc2)c(C)n1Cc1cccs1,-6,-3,-3,1.8,-5,-1
CCOC(=O)c1c(C)[nH]c(C(=O)COC(=O)C2CC2)c1C,1,-1,8,1.2,2,-3
O=C(CN1CCN(Cc2ccc(Cl)cc2)CC1)N/N=C/c1cccs1,-1,-22,-3,0.6,12,-23
Cc1cccc(C)c1N(CC(=O)Nc1cccc(N(C)S(C)(=O)=O)c1)S(C)(=O)=O,0,0,-10,-0.3,6,16
O=C(NN=Cc1ccccc1Cl)c1ccccc1,-1,-7,-5,-0.9,.,-23
COc1ccc(C(=O)N2CCN(S(=O)(=O)c3ccc(Cl)cc3)CC2)cc1S(=O)(=O)N1CCOCC1,2,.,-2,-0.3,.,0
O=S(=O)(c1ccccc1Br)N1CCC(O)(c2cccnc2)CC1,8,-18,-5,1.3,25,-6

# Screening results deposited in PubChem BioAssay by National Center for Advancing Translational Sciences (NCATS).
